# D2 potentiator: positive allosteric modulators of human D2 dopamine receptor. potentiation, % (no concentration beside the values). DiscoveRx D2 beta-arrestin cells, luminescence, 90 min; 100% = 57 uM dopamine signal. P14416. 360,000 compounds, 0.23% hits; active = potentiation of 50% or more; inconclusive = 30% to 50%; inactive = 30% or less;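 note: compound concentration not given in the record; tested on top of an EC20 dose of dopamine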
# Target sequence (P14416 whole entry, looked up): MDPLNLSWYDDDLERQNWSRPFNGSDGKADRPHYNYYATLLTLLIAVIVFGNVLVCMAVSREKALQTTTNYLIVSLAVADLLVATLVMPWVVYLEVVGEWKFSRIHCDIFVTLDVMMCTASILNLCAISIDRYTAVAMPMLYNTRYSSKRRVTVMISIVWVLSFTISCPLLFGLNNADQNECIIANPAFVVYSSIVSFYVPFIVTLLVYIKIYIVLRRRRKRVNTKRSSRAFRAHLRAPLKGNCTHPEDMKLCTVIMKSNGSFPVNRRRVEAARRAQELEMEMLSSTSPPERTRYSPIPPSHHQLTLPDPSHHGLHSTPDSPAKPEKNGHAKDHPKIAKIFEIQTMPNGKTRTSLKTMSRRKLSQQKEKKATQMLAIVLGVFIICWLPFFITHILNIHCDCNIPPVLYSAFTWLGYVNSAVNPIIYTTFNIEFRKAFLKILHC
#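 PathHunter D2 cells, attached overnight at 37 deg C, received compound in DMSO plus dopamine at EC20 (50 nM final) for 90 min at 37 deg C. Beta-arrestin recruitment was read as luminescence after 1 h with detection reagent at ambient temperature.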
# gsp antag: gsp mutant antagonism; Potency, µM (highest dose often 76.9 µM), for the others: at the top dose activity change, negative = inhibition, usual class: inhibitors; gsp-mutant cells, cAMP HTRF, 30 min; control for the full effect not named in the record; AID 624288; 340,000 compounds, 0.4% hits; active = falling curve of any shape with a large fitted effect; inconclusive = falling curve, mostly with a smaller effect; inactive = flat or rising curve; cell line not stated here;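 note: intracellular cAMP measured with PDE inhibitor Ro 20-1724 present during compound exposure; potency is the fitted concentration of half-maximal effect; % is set by controls: 0 for no effect and ±100 for the full control effect; nearly all actives have a fitted effect of over 65% in size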
#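 Measurement of cellular cAMP by homogeneous time-resolved fluorescence following a 30 min compound exposure at 37C. The PDE inhibitor […] was present throughout; the assay buffer was DPBS with 0.05% BSA and 0.005% Tween 20.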
# gsp agonist: activates gsp, the McCune-Albright syndrome mutation. gsp mutant cells, cAMP HTRF, 30 min; control for the full effect not named in the record. Potency, µM (top dose mostly 76.9 µM), inactives show at the top dose activation (cAMP increase), most hits filed as activators. 340,000 compounds, 0.13% hits. AID 624287; active = well fitted activation curve with a large enough effect; inconclusive = small, poorly fitted or top-dose-only effect, or another doubt; inactive = no such curve, though single readings can be large or run the other way; cell line not stated here;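 note: phosphodiesterase inhibitor Ro 20-1724 added with compounds to block cAMP breakdown; potency is the fitted concentration of half-maximal effect; nearly all actives have a fitted effect of over 60% in size; about a fifth of the inactives were tested at one dose only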
#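 Cells in DMEM/10% FBS with G418 were pretreated with compounds in DMSO plus […] (300 uM stock) for 30 min at 37C. cAMP was measured by HTRF (cAMP-d2 plus anti-cAMP antibody-K) after 30 min at room temperature.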
# Six1-Eya2 inh: inhibitors of human Six1/Eya2 interaction; Q15475+O00167; AID 651725; AlphaScreen GST-Six1/His-Eya2 binding, biochemical; active compounds read low; control for the full effect not named in the record; activity change, % (no concentration beside the values); 360,000 compounds, 0.56% hits; in the data active = activity change below about -65%; inconclusive = about -30% to -65%; inactive = above about -30%; note: % is set by controls: 0 for no effect and ±100 for the full control effect
#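 GST-Six1 + His-Eya2 (5X stock: 250/500 nM); Tris pH 8.0, 300 mM NaCl, 0.05% BSA, 0.02% Tween 20; GSH donor/Ni acceptor beads; 1 h 37 °C dark; AlphaScreen readout.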
# CtBP-E1A inh: inhibitors of CtBP/E1A interaction; 340,000 compounds, 0.49% hits; AID 651724; AlphaScreen GST-E1A/His-CtBP binding, 1536-well; active compounds read low; control for the full effect not named in the record; activity change, % (concentration not given with the values); in the data active means activity change below about -65%; inconclusive means about -30% to -65%; inactive means above about -30%; note: % is set by controls: 0 for no effect and ±100 for the full control effect
#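 Protein mix (5X: 125 nM each GST-E1A, His-CtBP) was incubated with pinned compound 2 h at 37 deg C in dark, in 50 mM Tris pH 8.0 buffer with 300 mM NaCl. Glutathione donor and nickel acceptor beads followed; AlphaScreen signal read after 1 h.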
# D2 ag: activates the human D2 dopamine receptor. DiscoveRx PathHunter D2 beta-arrestin, luminescence, 90 min; 100% = 57 uM dopamine signal. activation, % (no concentration beside the values). 360,000 compounds, 0.084% hits; in the data active = activation above about 40%; inconclusive = about 15% to 40%; inactive = below about 15%; note: compound concentration not given in the record; the text of the record calls up to 30% inactive
#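 DiscoveRx PathHunter D2 beta-arrestin cells (2,100/well) attached overnight, then compound-stimulated 90 min at 37 C in HBSS/10 mM HEPES/0.1% Tween-20 buffer; beta-galactosidase complementation read by luminescence after 1 h at ambient temperature. Dopamine 57 uM final (EC100) as control.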
# An asterisk follows results filed as active; ? = inconclusive; nt = not tested or not shown; [ ] = remark or other dose. Random draw from the library. Share with any hit: about 1.4%.
structure,D2 potentiator,gsp antag,gsp agonist,Six1-Eya2 inh,CtBP-E1A inh,D2 ag
O=C(CN(CC1CCCO1)C(=O)CNS(=O)(=O)c1ccc(Cl)cc1)NCc1ccco1 (configuration not stated),-5,3%,8%[15.4 µM],-2,1,-5.0
O=C1COc2ccc(C(=O)COC(=O)c3cc(S(=O)(=O)N4CCOCC4)ccc3F)cc2N1,-8,-12%,-10%,0,-2,0.3
O=C(Nc1nnc(-c2ccc(F)cc2)o1)c1cccc([N+](=O)[O-])c1,6,-15%,7%[15.4 µM],2,-10,-6.0
O=C1CC(c2ccccc2)n2nc(N3C(=O)c4ccccc4C3=O)nc2N1 (configuration not stated),-1,2%,0%,-9,-3,-4.7
CCOc1ccc(Cl)cc1-c1cc(C(=O)NCc2cccc(C(F)(F)F)c2)[nH]n1,-9,nt,nt,3,-10,-2.4
CN(CC(=O)Nc1ccc(F)cc1)C(=O)CN1C(=O)c2cccc([N+](=O)[O-])c2C1=O,16,-7%,7%,5,1,2.4
O=C(N/N=C/c1ccsc1)c1ccc2ccccc2n1,-6,2%,1%,6,4,0.0
O=C(c1ccc(COc2ccccc2[N+](=O)[O-])o1)N1CCCCCC1,-8,-3%,-17%,-2,-8,4.3
Cc1ccc2nc(Nc3ncc4c(n3)CC(C)(C)CC4=O)nc(C)c2c1,-9,-2%,-5%[15.4 µM],12,12,-2.3
O=C(O)c1ccc(CSc2nc3ccc(N4C(=O)C5C6C=CC(C6)C5C4=O)cc3s2)cc1 (configuration not stated),-6,-23%,-25%,0,4,1.4
O=c1c2ccccc2oc2c1ccc1ccccc12,4,-8%,nt,21,0,-2.6
Cc1c(C(=O)O)cccc1-c1ccc(/C=N/Nc2ccc(Br)cc2)o1,19,-26%,-14%,-14,-14,-2.6
COC(=O)C1CC(=O)N(c2ccc(OCc3ccccc3Cl)cc2)C1 (configuration not stated),-7,-2%,-4%[15.4 µM],4,8,-2.8
COc1cc(OC)c2c(-c3cccc(-c4ccc(F)c(Cl)c4)c3)cc(=O)oc2c1,3,-10%,nt,7,7,-2.3
CC(/C=C/c1ccccc1)=N\Nc1nc(-c2ccccc2)cs1,-11,7%,5%,-2,-4,4.8
CCc1nc2ccc(C(=O)Nc3cccc(OCC(=O)N(C)C)c3)cn2c1N(C)C(=O)c1ccncc1,-3,nt,nt,2,10,-2.5
COc1ccccc1C(=O)Nc1ccnn1C1CCN(Cc2ncc[nH]2)CC1,-17,6%,?,-15,-27,6.8
CCc1nc2sccc2c(=O)[nH]1,0,12%,24%,3,7,0.4
Cc1nn(C(C)c2n[nH]c(=S)n2-c2ccc(F)cc2)c(C)c1[N+](=O)[O-] (configuration not stated),-7,1%,-51%[inhibitor],2,-2,3.8
CCC1C(c2ccccc2)=CCC(C(=O)O)C1C (configuration not stated),-6,-1%,5%,-8,-22,-3.1
CCn1c(SCC(=O)N2CCCCC2)nc2c(c1=O)SC(C)C2 (configuration not stated),-4,-5%,-12%,5,2,-4.7
COC(=O)C(C)Sc1n[nH]c(=S)s1 (configuration not stated),-15,-16%,0%,0,-2,-5.2
N#Cc1ccc(C(=O)CSc2nnc(-c3ccc(C(F)(F)F)cn3)s2)cc1,-6,?,1%[15.4 µM],7,4,-7.0
CCCCCCNC(=O)O[C@]12C[C@@H](C(=O)OC)[C@@H](C(=O)OC)C[C@@]1(O)CN(S(=O)(=O)c1ccc(C)cc1)C2,8,nt,-56%[inhibitor],3,-4,-7.1
Cc1ccc(F)cc1NC(=O)N1c2ccccc2NC(=O)CC1C (configuration not stated),-20,-5%,?,0,nt,-4.2
COc1cc(-c2nc3cnccn3c2Nc2ccc(C)cc2)ccc1O,7,-16%,27%,3,0,1.0
O=C(Nc1ccc2c(c1)OCCO2)c1ccc(Cl)c([N+](=O)[O-])c1,-28,-18%,-5%,-11,-7,-0.8
CC[C@]1(C(=O)OC)[C@H]2C(=O)N(Cc3ccccc3)C(=O)[C@H]2[C@H]2CN(C)C(=NCc3ccccc3)N21,nt,15%,nt,5,2,0.3
C=CCOc1ccccc1CN1CCC(Oc2ccc(C(=O)N3CCCC3)cc2)CC1,-33,3%,2%,-4,1,-0.6
O=C(CCCN1C(=O)c2ccccc2C1=O)NCc1ccc(F)cc1,1,2%,-8%,2,-1,-5.1
CCOCCCN(C(=O)c1snc(C(N)=O)c1N)C(C(=O)NCCC(C)C)c1ccc(F)cc1 (configuration not stated),-18,-3%,-2%,8,nt,-3.0
O=C1C(Nc2cccc(O)c2)=C(N2CCCCC2)C(=O)c2ccccc21,65*,-8%,-65%[inhibitor],-71*,6,3.9
CCc1ccc(NC(=O)C2CC=CCC2C(=O)O)cc1 (configuration not stated),-1,1%,1%,11,6,-4.4
CCC1=C(OC(=O)N(CC)CC)N2C(=O)OC(=NCC3CC3)[C@]2(Cc2ccccc2)[C@H]2C1=CC[C@H]1C(=O)N(c3ccccc3)C(=O)[C@H]12,-10,-26%,9%,-13,-13,-2.5
O=C(CSC1=NCCS1)NC(c1ccccc1)c1ccccc1,-16,1%,-29%,0,16,-3.5
Clc1ccc(C2=Nn3c(Cn4nnc5ccccc54)nnc3SC2)cc1,-4,-26%,4%[15.4 µM],-4,-4,-4.3
CCc1ccc(S(=O)(=O)NCCc2csc(-c3cccnc3)n2)s1,-2,5%,?,-6,-4,-1.1
CC(CCc1ccccc1)NC(=O)CSc1nc(N)cc(N)n1 (configuration not stated),-24,4%,-8%,-2,-13,-0.7
CC1CCCCC1NC(=O)CN1CCC(NC(=O)C(C)(C)C)CC1 (configuration not stated),-6,nt,-23%,-4,8,-2.9
CCn1c(SCC(=O)c2ccc(Cl)s2)nnc1-c1cccs1,-21,-19%,1%,-1,-5,-3.0
Cc1cc(NC(=O)CSc2nnnn2-c2ccccc2C)no1,-1,8%,-1%[15.4 µM],?,-4,-0.1
COc1ccc(S(=O)(=O)N2CCOC2CNC(=O)C(=O)NCc2cccnc2)cc1OC (configuration not stated),-13,10%,6%,5,nt,-5.4
O=C(CCn1c(=O)oc2ccccc21)NCc1ccc2c(c1)OCO2,-22,4%,-37%[inhibitor],?,-13,0.1
COc1ccc(C(=O)NC(C)c2ccc(-n3ccnc3)cc2)c(OC)c1OC (configuration not stated),-29,6%,-1%[15.4 µM],-7,2,-4.2
COc1cccc(CN(C)C(=O)C(Cc2ccccc2)NC(=O)c2ccccc2)c1OC (configuration not stated),-19,-14%,12%[15.4 µM],-3,1,-2.2
COC(=O)c1ccc(CNC(=O)CSc2nc3ccccc3[nH]2)cc1,-13,1%,3%[15.4 µM],-5,-6,-4.2
COc1cccc(OC)c1-c1nnc(-c2cn(C)c3ccccc23)o1,1,0%,-27%,1,1,-1.8
Cn1nc(-c2ccccc2)nc1-c1ccccc1,-13,13%,4%,5,2,-3.3
CN(CCCNC(=O)c1cc2c(Cl)nc3ccccc3c2s1)Cc1ccccc1,-11,17%,-1%,-23,-30,2.4
O=C(c1cc(COc2cccc(C(F)(F)F)c2)on1)N1C[C@H]2CC[C@H]1C2,-11,-14%,4%,1,4,-1.4

# Continued.
structure,D2 potentiator,gsp antag,gsp agonist,Six1-Eya2 inh,CtBP-E1A inh,D2 ag
C/C(Cc1ccccc1)=N\NC(=O)CNC(=O)c1ccc2c(c1)OCCO2,-7,-13%,20%[15.4 µM],7,2,-5.2
CCOC(=O)C(=O)c1csc(NC(=O)COc2ccc(N(C)S(=O)(=O)c3ccc(F)cc3)cc2)n1,15,-25%,-65%[inhibitor],-3,1,1.4
O=C(O)C1=C[C@@H](c2ccc(Br)cc2)C[C@@H](OCCCCO)O1,2,9%,nt,9,6,-1.7
Cc1ccc(S(=O)(=O)N2CCN(S(=O)(=O)N(C)C)CC2)cc1,2,6%,5%,12,4,-1.4
CCCn1c(=O)[nH]c(=O)c2c1nc(-c1ccc(OC(F)F)c(OC)c1)n2CCOC,27,-9%,0%,-5,-6,1.4
COCCn1cnc2c(c1=O)c1nc3ccccc3nc1n2/N=C/c1cccc(OC)c1,-5,?,-2%[15.4 µM],?,-13,-1.8
COc1ccc(C2N3CC4(C)CN2CC(C)(C3)C4O)cc1 (configuration not stated),-5,-2%,-12%,5,1,-6.1
O=C(Oc1cccnc1)c1cc(S(=O)(=O)N2CCOCC2)ccc1Cl,-13,0%,-46%[inhibitor],-1,0,-1.2
Cc1cccc(S(=O)(=O)c2c(C)cc(C)nc2Cl)c1,-18,nt,-2%[15.4 µM],0,11,-3.3
Cc1cc(=O)[nH]c2nc3ccccc3n12,-6,nt,-10%,-2,3,-1.3
Cc1ccc(-c2c(C(=O)NC(C)C)oc(=O)c3ccccc23)cc1,-5,-4%,11%,-5,-23,2.3
COc1ccc2cc(C3CC(c4ccco4)=NN3S(=O)(=O)c3ccccc3)c(Cl)nc2c1 (configuration not stated),-13,-7%,7%[15.4 µM],-22,-10,-1.8
Cc1cc2[nH]c(=O)c(=O)[nH]c2cc1S(=O)(=O)Nc1ccccc1F,-2,8%,?,10,0,-0.6
C[C@H]1Cn2cnc(C(=O)N[C@H](C)c3ccccc3)c2C(=O)N1,1,nt,-12%,-1,0,-0.4
CC(=O)Nc1ccc(S(=O)(=O)Nc2nc3ccc(C)cc3s2)cc1,-1,-6%,13%,6,0,6.9
CCCCNC(=O)OC(C)CNC(=O)Oc1cccc(C)c1 (configuration not stated),-20,-3%,-2%,10,-4,-0.7
Cc1cc2nc(-c3ccc(Cl)cc3)c(Cc3cccc(F)c3)n2c(C)c1Br,-11,nt,nt,-5,-2,-4.8
CC/C(=C/c1sc2ccc(C)cc2[n+]1CCCS(=O)(=O)[O-])SC,-4,14%,-2%[15.4 µM],-8,6,-9.4
COc1ccc(S(=O)(=O)Nc2cccc(F)c2)cc1C,1,-4%,1%,8,-5,-5.6
c1ccc2c(c1)ncn2CCCCOc1ccc2c(c1)CCC2,-6,?,-5%,1,-1,-0.3
COc1ccc(NC(=O)c2sc(N)nc2-c2ccccc2)cc1,-6,-8%,9%,-6,0,2.5
CC1Cc2ccccc2N1C(=O)COC(=O)Cc1ccc(F)cc1 (configuration not stated),7,12%,-6%,6,2,-4.8
